UCH37 inh: inhibitors of human deubiquitinating enzyme UCH37. purified proteasome/UCH37, Ub-AMC cleavage fluorescence. inhibition, % (no concentration beside the values). hit rate 0.33% among 330,000. AID 588478;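 active = mean of two replicates above 20%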;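 also: 0% = compound-free wells with enzyme and 100% = wells lacking proteasome; stock transfer was 100 nL into about 20 µL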
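Assay system: Proteasome-bound UCH37. Buffer or medium: pH 7.4 Tris-HCl (50 mM) with ovalbumin, ATP-MgCl2, DTT. Incubation: 30 min preincubation with enzyme, 25 min cleavage at room temperature. Measured by: fluorescence, ex 355 nm, em 460 nm. Read-out basis: percent inhibition. Control set: wells without proteasome as full block, compound-free enzyme plus substrate as uninhibited.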
HNF4A DNA FP: change in binding of human HNF4 alpha to DNA | P41235 | HNF4a-FITC DNA binding, fluorescence polarization, 1 h | activity change, % at 10 µM | hit rate 0.3% among 360,000 | AID 1224865; in the data active = activity change above about 30%, passing the limit was not always enough;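 also: controls were the assay level and a saturating level of protein; the project sought stronger binding though the title names inhibitors; some compounds called inactive have numbers as strong as hits; positive values seem to mean higher polarization but the record does not say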
Target sequence (P41235 whole entry, looked up): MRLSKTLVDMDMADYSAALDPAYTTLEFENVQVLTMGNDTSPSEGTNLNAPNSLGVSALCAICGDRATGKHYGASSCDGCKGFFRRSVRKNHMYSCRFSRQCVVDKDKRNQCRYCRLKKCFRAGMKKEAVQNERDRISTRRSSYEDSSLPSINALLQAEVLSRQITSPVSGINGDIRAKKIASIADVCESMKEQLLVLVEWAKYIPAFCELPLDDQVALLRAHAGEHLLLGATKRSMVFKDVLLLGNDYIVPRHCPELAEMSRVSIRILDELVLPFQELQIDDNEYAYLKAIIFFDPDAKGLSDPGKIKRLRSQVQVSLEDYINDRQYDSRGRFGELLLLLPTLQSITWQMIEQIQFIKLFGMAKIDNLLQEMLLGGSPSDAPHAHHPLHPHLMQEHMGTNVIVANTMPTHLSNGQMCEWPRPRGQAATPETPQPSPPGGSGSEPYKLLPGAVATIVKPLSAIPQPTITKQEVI
LANA-H2B inh: blocks KSHV LANA binding to histone H2A/H2B | cell-free LANA-H2A/H2B peptide, fluorescence polarization | inhibition, % (concentration not given with the values) | hit rate 0.6% among 320,000 | AID 2629 | Q9QR71; in the data active = inhibition mostly above about 10%, no sharp cut-off; inactive = mostly below about 6.7%;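 also: stock transfer was 7.5 nL into about 10 µL; 0% = median of vehicle wells and 100% = median of positive control wells; one replicate is shown; the record names a cut of 25% in any replicate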
E coli growth: inhibitors of Escherichia coli growth; AID 1053175; OD600, 23 h; stronger effect = lower value; hit rate 0.21% among 330,000; OD600 absorbance (test concentration not listed);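 active = OD600 absorbance below the run mean of sample wells minus 3.6 SD, in any replicate, cut at about 0.56 in these data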;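 also: stock transfer was 300 nL into about 60 µL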
ALR inh: blocks human ALR sulfhydryl oxidase activity | P55789 | purified ALR, DTT oxidation, H2O2 HRP-luminol luminescence | inhibition, % (test concentration not listed) | hit rate 3.8% among 290,000;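 active = mean and each replicate at 75% or more; inconclusive = only one of the two met; inactive = neither met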;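 also: stock transfer was 7.5 nL into about 7.5 µL; 0% = neutral wells and 100% = wells with inactivated enzyme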
Target sequence (P55789 whole entry, looked up): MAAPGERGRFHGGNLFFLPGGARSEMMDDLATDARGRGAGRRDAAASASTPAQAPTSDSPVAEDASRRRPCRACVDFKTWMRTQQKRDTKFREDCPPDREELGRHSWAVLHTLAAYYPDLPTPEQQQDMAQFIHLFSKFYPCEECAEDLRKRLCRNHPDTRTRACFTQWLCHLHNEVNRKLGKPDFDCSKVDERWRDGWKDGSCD
FGF22 binding: FGF22 (human) thermal shift binding. Q9HCT0. recombinant FGF22 thermal shift, SYPRO orange fluorescence; percent of sucrose octasulfate shift, DMSO zero. calls only at 9.99 µM. hit rate 1.5% among 340,000. AID 651658;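 active = melting point raised past a set limit in the mean and every replicate; inconclusive = no clear call; three in four hits are not shown here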
B2AR ag: agonists of human beta-2 adrenergic receptor inducing internalization | P07550 | Am2.2-beta2AR cells, FAP receptor internalization, flow cytometry; reference of the scale not given here | response, % (test concentration not listed) | hit rate 0.43% among 340,000 | AID 504454;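 active = response above a set limit, near 3 SD of response in nonfluorescent compounds, cut at about 42% in these data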;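 also: stock transfer was 100 nL into about 11 µL; a reference agonist was the positive control; negative values mostly stem from fluorescent compounds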
Target sequence (P07550 whole entry, looked up): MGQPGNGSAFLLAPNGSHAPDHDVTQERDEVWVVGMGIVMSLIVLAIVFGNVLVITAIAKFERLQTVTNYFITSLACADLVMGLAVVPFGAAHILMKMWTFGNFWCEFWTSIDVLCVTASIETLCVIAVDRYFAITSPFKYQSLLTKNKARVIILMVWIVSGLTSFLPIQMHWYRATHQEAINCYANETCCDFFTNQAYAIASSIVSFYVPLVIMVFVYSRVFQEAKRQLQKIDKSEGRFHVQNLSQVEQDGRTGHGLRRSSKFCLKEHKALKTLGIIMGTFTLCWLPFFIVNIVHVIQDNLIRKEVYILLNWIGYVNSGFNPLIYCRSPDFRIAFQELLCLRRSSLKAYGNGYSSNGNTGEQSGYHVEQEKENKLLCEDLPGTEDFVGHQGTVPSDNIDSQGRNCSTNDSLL
* marks the source's active call; other numbers are inactive results; i = inactive; ? = inconclusive; . = not tested or not shown. An excerpt; count on the stated rates, not on these rows.

SMILES | UCH37 inh | HNF4A DNA FP | LANA-H2B inh | E coli growth | ALR inh | FGF22 binding | B2AR ag
CC1CCc2c(sc(NC(=O)COC(=O)c3ccc(O)cc3)c2C#N)C1 (centres undefined) | 1.5 | 4.7 | -3.8 | 0.71 | . | i | -1
Cc1sc(NC(=O)C2=COCCO2)c(C#N)c1C | 4.2 | -1.9 | . | 0.62 | . | i | -3
COc1cccc(CNC(=O)c2cc(C)nc3ccccc23)c1 | -1.1 | 0.6 | 1.8 | 0.69 | 0 | i | -10
O=C(NCCc1ccc(Cl)cc1)C1CCC(=O)N1C1CCCC1 (centres undefined) | 6.7 | 0.4 | -1.5 | 0.7 | -3 | . | 18
COc1cccc(CNC(=O)COC(=O)c2nn(C)c(=O)c3ccccc23)c1 | 3.2 | 1.9 | -6.5 | 0.67 | -27 | i | -4
CC1C(=O)Nc2ccc(S(=O)(=O)N3CCN(c4cccc(Cl)c4)CC3)cc2NC1=O (centres undefined) | 1.8 | -0.4 | 4.0 | 0.71 | -2 | i | 7
O=C(O)CCCC(=O)Nc1nc(-c2ccccc2)cs1 | 2.3 | 1.5 | 2.8 | 0.69 | . | . | 3
Cc1nc(-c2cccc(NC(=O)C(C)Oc3ccccc3)c2)cs1 (centres undefined) | 3.4 | -3.1 | -7.5 | 0.7 | -6 | i | -3
CCOC(=O)[C@@H]1[C@H]2COc3ccc(Br)cc3[C@@H]2N2C(=O)N(c3ccc(C(F)(F)F)cc3)C(=O)[C@@]12C | 1.5 | 1.9 | -2.5 | . | . | i | 15
CCCc1ccc(C#N)c(SC2CC(=O)N(c3ccc(OC)cc3)C2=O)n1 (centres undefined) | 5.6 | 0.5 | 2.6 | 0.69 | 7 | i | -13
O=C(O)C1CCCN(S(=O)(=O)c2ccccc2[N+](=O)[O-])C1 (centres undefined) | 2.7 | -1.5 | 2.1 | 0.69 | -5 | i | -13
Cc1cnc(C(=O)NC2CC(C)(C)Cc3c2cnn3-c2ccccc2)cn1 (centres undefined) | 3.3 | -0.8 | 4.9 | 0.69 | 9 | i | -3
C#CCNCCS(=O)(=O)N(Cc1ccc(Br)cc1)[C@@H](CC(C)C)C(=O)O | -1.7 | -2.5 | . | 0.69 | . | i | -14
Cc1nc(SCC(=O)NNC(=O)c2ccc(F)cc2)c2ccccc2n1 | 3.5 | -5.2 | 1.4 | 0.69 | 8 | . | 7
CC(Sc1nncs1)C(=O)NCC(=O)Nc1ccc(F)c(F)c1F (centres undefined) | 0.4 | 2.2 | -1.2 | 0.65 | -5 | i | 0
CCOc1ccccc1NC(=O)Nc1ccc(Cl)cc1 | 2.6 | 3.2 | -13 | 0.72 | -3 | i | 2
O=c1ccc2cc(S(=O)(=O)N3CCN(c4ccccc4)CC3)ccc2o1 | 0.3 | -0.9 | -2.6 | 0.74 | -1 | . | -2
CC(=O)NC1C(=O)Nc2c1cccc2C(F)(F)F (centres undefined) | 0.5 | -1.5 | 0.6 | 0.73 | 0 | . | 2
CCOC(=O)N1CCC(NC(=O)CC(NS(=O)(=O)c2ccc(C)cc2)c2ccco2)CC1 (centres undefined) | 3.1 | 0.9 | . | 0.78 | . | . | 0
Cc1sc2nc(CSc3nnnn3-c3ccc(Cl)cc3)[nH]c(=O)c2c1C | -4.2 | 38* | . | 0.7 | . | . | -15
COC(=O)CSc1nc(NC(C)=O)nc(C)c1Br | -2.2 | 1.6 | 0.7 | 0.74 | . | . | 7
Cn1c(=O)n(Cc2ccccc2)c(=O)c2c1nc1n2CCCN1CCc1ccccc1 | 3.2 | -1.1 | 0.5 | 0.76 | -35 | . | 1
CCN(CC)c1ccc2c(-c3ccc(S(=O)(=O)O)cc3S(=O)(=O)[O-])c3ccc(=[N+](CC)CC)cc-3oc2c1 | 13 | -85 | 150* | 0.76 | -8 | . | -12
CCNc1nc(N)c(C(=O)C23CC4CC(CC(C4)C2)C3)s1 | 5.5 | -0.1 | -3.3 | 0.62 | 15 | i | -7
CCN(CC)C(=O)N1CCc2ccccc2C1CN1C(=O)c2ccccc2C1=O (centres undefined) | 1.9 | 4.8 | 4.3 | 0.66 | -13 | . | -3
Cc1ccccc1C1(CCN2CCCCC2)CCOC(C)(C)C1 (centres undefined) | -0.3 | -2.3 | -5.4 | 0.71 | -2 | . | -8
CC1CCC(NC(=O)N(CCCl)N=O)CC1 (centres undefined) | . | -0.2 | 1.7 | . | 4 | i | -7
C=CCn1c(Br)nc2c1c(=O)n(C)c(=O)n2C | 6.9 | 2.1 | 0.3 | 0.69 | -2 | . | 6
C=C(C)c1cccc(C(C)(C)NC(=O)Nc2nnc(C(C)C)s2)c1 | 2.3 | 3.4 | -0.8 | 0.67 | -3 | i | 0
CN(C)C(CNC(=O)c1ccc(NS(=O)(=O)c2ccc3[nH]c(=O)[nH]c3c2)cc1)c1ccccc1 (centres undefined) | . | -1.4 | -3.7 | . | . | i | -3
Cc1ccc(Cn2nnc3c(=O)[nH]c(C4CCCN(C(=O)Nc5ccc(F)cc5F)C4)nc32)cc1 (centres undefined) | 2.2 | 21 | 0.1 | 0.71 | 4 | . | -9
CCOc1cc2nc3c4ccccc4n(C)c3nc2cc1OCC | -135 | -9.8 | -0.7 | 0.67 | 20 | i | 6
Cc1cc(F)ccc1S(=O)(=O)Nc1nc2ccccc2nc1Cl | -14 | -3.3 | -0.4 | 0.62 | 3 | i | 15
O=C(CCCN1C(=O)c2ccccc2C1=O)NCc1cccnc1 | 3.4 | 0.1 | 0.3 | 0.68 | -20 | . | 2
Cc1ccc(Cn2c(CN3CCN(C(=O)c4ccco4)CC3)nc3c2c(=O)n(C)c(=O)n3C)cc1 | 5.3 | 4.3 | 2.5 | 0.72 | 3 | . | -22
Cn1c(SCC(=O)Nc2cc([N+](=O)[O-])ccc2F)nnc1C(F)(F)F | -2.0 | 0.2 | 2.0 | 0.69 | -5 | . | -16
Cc1ccc(NC(=O)COC(=O)/C=C/c2cccs2)cc1 | -2.4 | 2.9 | 1.2 | 0.73 | 33 | . | 6
CCCCC1CCC(C(=O)Nc2ccccc2N2CCOCC2)CC1 (centres undefined) | -0.4 | 0.8 | . | 0.69 | . | i | 2
O=C(NCc1ccco1)c1ccc(NC(=O)C2COc3ccccc3O2)cc1 (centres undefined) | 2.9 | -0.5 | 2.2 | 0.71 | -4 | . | -5
CC(C)CNc1nnnc2c1sc1nc(N3CCOCC3)c3c(c12)CCCC3 | 5.4 | 3.9 | . | 0.71 | . | i | 0
N#Cc1c(C(F)(F)F)cc(-c2ccco2)nc1SCc1ccncc1 | -86 | 13 | 1.7 | 0.73 | . | . | -13
CC(C)c1nc(SCC(=O)N2CC(=O)Nc3ccccc32)c2ccccc2n1 | 4.7 | 0.0 | 1.3 | 0.63 | -3 | i | -13
COc1ccc(Cl)cc1NC(=O)CCN1C(=O)NC(C)(C)C1=O | 4.8 | -2.2 | . | 0.7 | . | i | 3
CC(C)(C)c1csc(NC(=O)C2COc3ccccc3O2)n1 (centres undefined) | 3.5 | -0.1 | -0.4 | 0.73 | -2 | i | 2
Cc1ccc(S(=O)(=O)NCC(c2ccccc2)N2CCCCC2)cc1 (centres undefined) | 0.6 | -2.1 | 0.7 | 0.68 | -9 | . | -4
CNC(=S)NNS(=O)(=O)c1ccc(OC)cc1OC | -0.4 | -6.0 | -6.2 | 0.72 | ? | i | -3
COC(=O)C1=C(C(=O)OC)C(c2cc(Br)ccc2O)c2sc(=O)[nH]c2S1 (centres undefined) | 3.6 | -2.7 | 7.7 | 0.71 | 30 | . | 10
COc1ccccc1N1CCN(C2CCCN(C(=O)c3csc(C)n3)C2)CC1 (centres undefined) | 1.2 | 4.1 | 3.1 | 0.6 | 23 | i | 1
CCCOc1nc2ccccc2cc1/C=C/C(=O)O | -179 | 4.6 | 0.6 | 0.66 | -3 | i | 9
Cc1cccc(CC2CC(=O)N(c3ccc([N+](=O)[O-])cc3)C2=O)c1 (centres undefined) | 5.6 | 4.0 | 3.1 | 0.68 | -10 | i | 4
Cc1ccc(-c2nnc(SCC(=O)OC(C)C)n2N)cc1 | 4.3 | 0.5 | 0.3 | 0.73 | 15 | . | 1
NNC(=O)c1c(O)c2cccc3c2n(c1=O)CCC3 | -2.2 | -3.0 | -1.4 | 0.65 | . | i | -4
COCCNC(=O)c1ccccc1NC(=O)Cc1ccccc1 | -1.1 | -2.7 | 1.1 | 0.68 | 2 | i | -6
COC(=O)c1sc2ccccc2c1NC(=O)c1ccc(S(=O)(=O)N2CCCCC2C)cc1 (centres undefined) | 0.6 | 6.7 | -0.5 | 0.71 | -7 | i | -4
CCOC(=O)C(OC(=O)c1sc(=S)n(C)c1C)C(C)=O (centres undefined) | 0.6 | -2.0 | 9.4 | 0.77 | -9 | . | 29
CN(C)C=C1C(=O)c2ccccc2C1=O | 6.7 | -4.5 | -0.4 | 0.73 | -9 | . | -6
COc1cccc(NC(=O)C/C(C)=N/NC(=O)c2ccccc2Cl)c1 | . | 5.3 | 5.4 | . | 19 | i | 0
CCOC(=O)c1c(C)oc2cc(Br)c(OC(=O)N3CCOCC3)cc12 | -3.0 | 1.7 | -2.4 | 0.71 | -12 | . | 2
O=C1CC(C(=O)Nc2ccc(F)cc2)S/C(=N\N=C\c2ccco2)N1 (centres undefined) | . | -1.4 | 4.1 | . | 96* | . | -1
Cc1nc2c(o1)C(=O)c1ccccc1C2=Nc1ccccc1 | . | 0.9 | . | . | . | i | -1

5 entries from above, in CSV form.
molecule,UCH37 inh,HNF4A DNA FP,LANA-H2B inh,E coli growth,ALR inh,FGF22 binding,B2AR ag
CCN(CC)C(=O)N1CCc2ccccc2C1CN1C(=O)c2ccccc2C1=O (centres undefined),1.9,4.8,4.3,0.66,-13,.,-3
CC1C(=O)Nc2ccc(S(=O)(=O)N3CCN(c4cccc(Cl)c4)CC3)cc2NC1=O (centres undefined),1.8,-0.4,4.0,0.71,-2,i,7
Cc1ccccc1C1(CCN2CCCCC2)CCOC(C)(C)C1 (centres undefined),-0.3,-2.3,-5.4,0.71,-2,.,-8
Cn1c(SCC(=O)Nc2cc([N+](=O)[O-])ccc2F)nnc1C(F)(F)F,-2.0,0.2,2.0,0.69,-5,.,-16
Cc1nc2c(o1)C(=O)c1ccccc1C2=Nc1ccccc1,.,0.9,.,.,.,i,-1

Carrying on.
SMILES | UCH37 inh | HNF4A DNA FP | LANA-H2B inh | E coli growth | ALR inh | FGF22 binding | B2AR ag
Cc1ccc(NS(=O)(=O)c2c(C)[nH]c(C)c2C(=O)N2CCCCC2)cc1C | 1.8 | 2.6 | -5.3 | 0.68 | 4 | i | 16
COc1c(Cl)cnn(-c2cccc(C)c2)c1=O | 3.4 | -2.2 | 5.4 | 0.71 | 1 | i | 1
CC(CC(=O)Nc1cccc(S(=O)(=O)N2CCCCC2)c1)c1ccccc1 (centres undefined) | 4.6 | -0.4 | 1.4 | 0.67 | -11 | i | -1
CN(C(=O)c1cc(-c2ccccc2)on1)C1CCCCC1 | 2.7 | 0.0 | 0.9 | 0.65 | 2 | i | -14
CCCN(Cc1cc2ccc(C)cc2[nH]c1=O)C(=O)c1ccccn1 | -1.1 | 1.6 | -1.5 | 0.66 | -11 | . | -9
O=C(OCC(=O)N1CCCCC1)c1n[nH]c(=O)c2ccccc12 | 4.4 | -1.0 | . | 0.67 | . | i | 3
COCCn1cnc2c1c(=O)n(CC(=O)O)c(=O)n2Cc1ccccc1 | 0.6 | -0.2 | 5.8 | 0.65 | 16 | i | -6
N#Cc1ccc(-c2nnnn2-c2ccc3c(c2)OCO3)cc1 | 6.1 | -1.9 | 1.0 | 0.73 | -1 | . | 5
COc1nnc(-c2ccc(N3CCOCC3)c(NC(=O)c3ccccc3)c2)c2ccccc12 | 3.0 | 4.2 | 2.3 | 0.66 | 2 | . | -13
CCC(=O)N1N=C(c2ccc(NS(=O)(=O)CC)cc2)CC1c1ccc(C)cc1 (centres undefined) | -345 | 1.2 | -0.9 | 0.73 | -7 | i | -2

Assay outcomes: PubChem BioAssay, several laboratories
